CtBP-E1A inh – blocks the CtBP interaction with E1A; AlphaScreen GST-E1A/His-CtBP binding, 1536-well; active compounds read low; control for the full effect not named in the record; activity change, % (test concentration not listed); 0.49% of 340,000 active; in the data active means activity change below about -65%; inconclusive means about -30% to -65%; inactive means above about -30%; note: % is set by controls: 0 for no effect and ±100 for the full control effect
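GST-E1A and His-tagged CtBP (125 nM each as 5X stock) were preincubated with pin-transferred compound for 2 h at 37 °C in the dark, then glutathione donor and nickel acceptor beads were added for 1 h before AlphaScreen reading.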
PINK1 expr mod – PINK1 expression modulation. 0.2% of 410,000 active. Potency, µM (series often up to 76.6 µM), without a hit: top-dose activation (PINK1 increase), actives largely listed as activators. PINK1 immunofluorescence, high-content cytometry, 24 h. AID 624263; active = well fitted activation curve with a large enough effect; inconclusive = small, poorly fitted or top-dose-only effect; inactive = flat fitted curve, though single readings scatter; cell line not stated here;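 note: potency is the fitted concentration of half-maximal effect; % of control where 0% means no effect; nearly all actives have a fitted effect of over 65% in size; a mitochondrial uncoupler was the plate control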
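Compound titrations (5 concentrations, 24 h) on a stable cell line; DMSO and CCCP controls. Endpoint: fixed-cell PINK1 immunofluorescence with mitochondrial, cell and nuclear markers, scanned by microplate cytometer.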
D2 potentiator – human D2 receptor positive allosteric modulation. P14416. DiscoveRx D2 beta-arrestin cells, luminescence, 90 min; 100% = 57 uM dopamine signal. potentiation, % (test concentration not listed). 0.23% of 360,000 active. AID 624464; active = potentiation of 50% or more; inconclusive = 30% to 50%; inactive = 30% or less;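 note: compound concentration not given in the record; tested on top of an EC20 dose of dopamine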
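PathHunter D2 cells, attached overnight at 37 deg C, received compound in DMSO plus dopamine at EC20 (50 nM final) for 90 min at 37 deg C. Beta-arrestin recruitment was read as luminescence after 1 h with detection reagent at ambient temperature.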
D2 agonist – activates the human D2 dopamine receptor. 0.084% of 360,000 active. activation, % (concentration not given with the values). DiscoveRx PathHunter D2 beta-arrestin, luminescence, 90 min; 100% = 57 uM dopamine signal. AID 624465; in the data active = activation above about 40%; inconclusive = about 15% to 40%; inactive = below about 15%; note: compound concentration not given in the record; the text of the record calls up to 30% inactive
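Agonist mode: compounds alone added to overnight-plated D2 PathHunter cells for 90 min at 37 C, with 57 uM final dopamine (EC100) defining full response. Beta-arrestin recruitment detected by chemiluminescent reagent, read after 1 h at ambient temperature.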
Six1-Eya2 blk – inhibitors of human Six1/Eya2 interaction; Q15475+O00167; AlphaScreen GST-Six1/His-Eya2 binding, biochemical; active compounds read low; control for the full effect not named in the record; activity change, % (concentration not given with the values); 0.56% of 360,000 active; AID 651725; in the data active = activity change below about -65%; inconclusive = about -30% to -65%; inactive = above about -30%; note: % is set by controls: 0 for no effect and ±100 for the full control effect
Target sequence (O00167 whole entry, looked up): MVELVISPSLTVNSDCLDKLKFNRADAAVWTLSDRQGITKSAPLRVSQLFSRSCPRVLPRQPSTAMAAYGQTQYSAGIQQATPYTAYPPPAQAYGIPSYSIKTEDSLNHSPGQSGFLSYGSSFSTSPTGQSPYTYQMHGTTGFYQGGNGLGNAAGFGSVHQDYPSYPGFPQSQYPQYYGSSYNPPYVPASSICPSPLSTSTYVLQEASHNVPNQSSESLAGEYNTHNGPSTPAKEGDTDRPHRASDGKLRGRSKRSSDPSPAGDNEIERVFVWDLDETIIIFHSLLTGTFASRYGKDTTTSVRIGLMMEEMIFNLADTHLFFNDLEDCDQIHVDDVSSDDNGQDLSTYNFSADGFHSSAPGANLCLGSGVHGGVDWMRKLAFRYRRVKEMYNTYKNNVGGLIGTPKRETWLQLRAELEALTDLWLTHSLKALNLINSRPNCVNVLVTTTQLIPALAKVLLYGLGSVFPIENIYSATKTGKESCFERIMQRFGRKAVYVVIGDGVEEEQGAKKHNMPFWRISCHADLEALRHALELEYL
Target sequence (Q15475 whole entry, looked up): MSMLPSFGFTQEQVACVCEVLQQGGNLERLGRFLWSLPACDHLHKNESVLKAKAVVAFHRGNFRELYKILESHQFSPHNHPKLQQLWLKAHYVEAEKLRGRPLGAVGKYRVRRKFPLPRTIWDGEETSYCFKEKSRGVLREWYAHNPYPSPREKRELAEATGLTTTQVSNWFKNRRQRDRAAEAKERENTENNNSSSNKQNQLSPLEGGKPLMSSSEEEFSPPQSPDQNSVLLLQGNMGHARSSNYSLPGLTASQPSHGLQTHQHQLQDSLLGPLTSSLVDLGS
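GST-Six1 + His-Eya2 (5X stock: 250/500 nM); Tris pH 8.0, 300 mM NaCl, 0.05% BSA, 0.02% Tween 20; GSH donor/Ni acceptor beads; 1 h 37 °C dark; AlphaScreen readout.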
TRPML1 ag – human mucolipin-1 channel agonism; TRPML1-expressing cells, Ca2+ dye fluorescence, FDSS; host cell line not named in the record; reference of the full effect not given here; activation, % (concentration not given with the values); 0.12% of 410,000 active; AID 624414; in the data active = activation above about 50%; inconclusive = about 30% to 50%; inactive = below about 30%; note: 0% is about no effect; the text of the record puts the active cut at 80%
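Tet-induced TRPML1-DL cells, 1,500 per well, cultured overnight, were loaded with a no-wash Ca2+ dye for 45–90 min. Calcium fluorescence was recorded on the FDSS for 110 s after compound addition, before the EC80 agonist (4 uM 54-4) was added.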
* marks the source's active call; other numbers are inactive results; & = joins results of further samples; [ ] = another dose, or the depositor's remark. Outcome played no part in choosing rows, and some 1.3% of all compounds hit somewhere here.

Results for CCn1c(SCC(N)=O)nc2sc3c(c2c1=O)CCN(C)C3 ?
CtBP-E1A inh: 5; PINK1 expr mod: -0.1%; D2 potentiator: -8; D2 agonist: -0.3; Six1-Eya2 blk: -7; TRPML1 ag: 0.4

Results for CC(=O)c1c(C)[nH]c(C(=O)OCC(=O)NCCc2ccc(Cl)cc2)c1C ?
CtBP-E1A inh: -8; PINK1 expr mod: 0.9%; D2 potentiator: -10; D2 agonist: -3.8; Six1-Eya2 blk: -11; TRPML1 ag: -0.9

What do the screens show for `CN(C(=O)CSc1nnc(-c2ccc(Cl)cc2)n1CC1CCCO1)C1CCS(=O)(=O)C1` (configuration not stated)?
CtBP-E1A inh: 8; PINK1 expr mod: 1.2%; D2 potentiator: -7; D2 agonist: -3.6; Six1-Eya2 blk: -16; TRPML1 ag: -0.4

What do the screens show for `Cc1[nH]n(-c2ccccc2)c(=O)c1/C=N/n1c(C)nc2ccccc2c1=O`?
CtBP-E1A inh: -15; PINK1 expr mod: -1.7%; D2 potentiator: -11; D2 agonist: -1.0; Six1-Eya2 blk: -7; TRPML1 ag: 1.4

Results for Cc1cc(S(=O)(=O)NCC(=O)O)ccc1F ?
CtBP-E1A inh: 8; PINK1 expr mod: 1.1%; D2 potentiator: -5; D2 agonist: -0.4; Six1-Eya2 blk: 0; TRPML1 ag: -1.3

Results for CS(=O)(=O)c1cccc(C(=O)NC(c2ccccc2)c2ccccc2)c1 ?
CtBP-E1A inh: 3; PINK1 expr mod: 1.8%; D2 potentiator: 11; D2 agonist: 0.6; Six1-Eya2 blk: 3; TRPML1 ag: 0.4

How did CCn1c(C)cc(/C=C2\NC(=O)N(CC(=O)Nc3cccc(C)c3)C2=O)c1C do in these assays?
CtBP-E1A inh: -2; PINK1 expr mod: -1.5%; D2 potentiator: -26; D2 agonist: -2.2; Six1-Eya2 blk: -6; TRPML1 ag: 0.3

How did Cc1cc(CNC(=O)CCc2nnc(CCCc3ccccc3)o2)nn1C do in these assays?
PINK1 expr mod: -1.5%; D2 potentiator: -6; D2 agonist: -2.8; Six1-Eya2 blk: 3; TRPML1 ag: 0.2

Results for COc1cccc(-n2nnc3c(=O)n(Cc4ccccc4F)cnc32)c1 ?
CtBP-E1A inh: -5; PINK1 expr mod: 4.8%[38.3 µM]; D2 potentiator: 8; D2 agonist: 3.0; Six1-Eya2 blk: -1; TRPML1 ag: -0.5

Results for O=C(Nc1ccc(F)c(F)c1)c1ccc2c(c1)OCO2 ?
CtBP-E1A inh: 6; PINK1 expr mod: 5.5%[38.3 µM]; D2 potentiator: -13; D2 agonist: 0.3; Six1-Eya2 blk: -1; TRPML1 ag: -0.8

Results for O=C(c1ccc([N+](=O)[O-])cc1)N(Cc1ccc(Cl)cc1)N1C(=O)CCCC1=O ?
CtBP-E1A inh: 6; PINK1 expr mod: 2.7%; D2 potentiator: 5; D2 agonist: 2.4; Six1-Eya2 blk: 4; TRPML1 ag: 19

Results for COc1ccccc1NC(=O)Cn1nnc(C(=O)NCc2cccs2)c1N ?
PINK1 expr mod: 8.5%&3.2%; D2 potentiator: -7; D2 agonist: -4.6; Six1-Eya2 blk: 0; TRPML1 ag: 3.9&-0.9

How did CCc1cc(=O)oc2cc(OC(C)C(=O)NCC(O)c3ccccc3)c(Cl)cc12 (configuration not stated) do in these assays?
CtBP-E1A inh: 0; PINK1 expr mod: 2.9%; D2 potentiator: -2; D2 agonist: -4.2; Six1-Eya2 blk: 2; TRPML1 ag: 0.0

Results for CCCC(C(=O)NC1CCCC1)N(Cc1ccc2c(c1)OCO2)C(=O)c1snc(C(N)=O)c1N (configuration not stated) ?
CtBP-E1A inh: -2; PINK1 expr mod: -1.0%[38.3 µM]; D2 potentiator: -1; D2 agonist: 3.3; Six1-Eya2 blk: 5; TRPML1 ag: 1.3

Results for O=C(O)CCNS(=O)(=O)c1ccc2c(c1)CCCC2 ?
CtBP-E1A inh: 8; PINK1 expr mod: 1.3%; D2 potentiator: 0; D2 agonist: 1.0; Six1-Eya2 blk: 0; TRPML1 ag: -0.6

What do the screens show for `CC(=O)Nc1ccc2c(c1)Cc1c-2cc(Br)c(N)c1Br`?
CtBP-E1A inh: 1; PINK1 expr mod: 2.9%; D2 potentiator: 1; D2 agonist: -0.8; Six1-Eya2 blk: -10; TRPML1 ag: 0.2

What do the screens show for `CC(=O)Nc1ccc(S(=O)(=O)N(C)CC(=O)OCC(=O)NNC(=O)c2ccccc2F)cc1`?
CtBP-E1A inh: 7; PINK1 expr mod: 1.6%; D2 potentiator: -18; D2 agonist: -9.4; Six1-Eya2 blk: -1; TRPML1 ag: -0.6

How did CC1CC1C(=O)Nc1ccc(S(=O)(=O)N2CCCCC2)cc1 (configuration not stated) do in these assays?
CtBP-E1A inh: 0; PINK1 expr mod: 13%; D2 potentiator: -22; D2 agonist: -2.0; Six1-Eya2 blk: 0; TRPML1 ag: -0.9

Results for O=C(NC1CC1)c1cc2cc3ccccc3nc2s1 ?
CtBP-E1A inh: -19; PINK1 expr mod: 2.7%; D2 potentiator: 2; D2 agonist: -3.2; Six1-Eya2 blk: -7; TRPML1 ag: -0.3

What do the screens show for `COC(=O)c1cccc(C23CC4(C2)[C@H](CN(Cc2ccc(-c5ccccc5)cc2)[C@@H]4c2ccccc2)C3c2ccccc2)c1` (some centres not stated)?
CtBP-E1A inh: -3; PINK1 expr mod: 1.9%; D2 potentiator: -4; D2 agonist: -2.8; Six1-Eya2 blk: -5; TRPML1 ag: 0.1

Results for O=C(CCS(=O)(=O)c1ccc(Br)cc1)NCc1ccco1 ?
PINK1 expr mod: 4.1%; D2 potentiator: -3; D2 agonist: 1.5; Six1-Eya2 blk: -23; TRPML1 ag: 3.5

Results for CC(=O)N1N=C(c2ccc(Cl)cc2)OC1c1ccc(C(C)C)cc1 (configuration not stated) ?
CtBP-E1A inh: 8; PINK1 expr mod: 1.2%; D2 potentiator: 2; D2 agonist: -2.7; Six1-Eya2 blk: -4; TRPML1 ag: -0.7

How did O=C(O)c1cccc(Nc2c3ccccc3nc3ccccc23)c1 do in these assays?
PINK1 expr mod: 0.0%; D2 potentiator: 3; D2 agonist: 1.5; Six1-Eya2 blk: -2

What do the screens show for `Cc1nc(SCC(N)=O)[nH]c(=O)c1Cc1ccc(OC(C)C)cc1`?
CtBP-E1A inh: 8; PINK1 expr mod: 1.5%; D2 potentiator: -1; D2 agonist: -0.7; Six1-Eya2 blk: -1; TRPML1 ag: 0.0

What do the screens show for `O=C(NCCc1ccccc1)C(=O)c1cn(CC(=O)N2CCCC2)c2ccccc12`?
CtBP-E1A inh: -4; PINK1 expr mod: inconclusive; D2 potentiator: -2; D2 agonist: -1.2; Six1-Eya2 blk: 1; TRPML1 ag: 1.7

What do the screens show for `COC(=O)c1cc(-c2ccc(Br)cc2)c2c(=O)[nH]c(=O)n(C)c2n1`?
CtBP-E1A inh: -15; PINK1 expr mod: 4.2%; D2 potentiator: -8; D2 agonist: -4.7; Six1-Eya2 blk: -18

Results for COCCn1c(=O)[nH]c2cc(C(=O)Nc3cccc(C(C)=O)c3)ccc2c1=O ?
CtBP-E1A inh: 0; PINK1 expr mod: 5.3%&0.6%; D2 potentiator: 7; D2 agonist: -6.8; Six1-Eya2 blk: -18; TRPML1 ag: -1.1&-0.3

What do the screens show for `O=C1C2C3C=CC(CC3)C2C(=O)N1/N=C/c1ccc(O)cc1` (configuration not stated)?
CtBP-E1A inh: 8; D2 potentiator: -14; D2 agonist: -1.2; Six1-Eya2 blk: -4; TRPML1 ag: -0.1

What do the screens show for `Cc1cc(-n2cnnn2)cc(C)c1S(=O)(=O)NCCOc1ccccc1`?
PINK1 expr mod: 0.1%; D2 potentiator: -3; D2 agonist: 3.2; Six1-Eya2 blk: 3; TRPML1 ag: -0.1

How did Cc1ccc(S(=O)(=O)N2CCN(C(=O)COC(=O)CNC(=O)c3ccc(C(C)(C)C)cc3)CC2)c(C)c1 do in these assays?
CtBP-E1A inh: -8; PINK1 expr mod: -1.6%; D2 potentiator: -4; D2 agonist: 12; Six1-Eya2 blk: -1; TRPML1 ag: 0.7

What do the screens show for `COc1ccc(C(=O)N2CCCC(N3CCN(c4ccccc4F)CC3)C2)c(OC)n1` (configuration not stated)?
CtBP-E1A inh: -11; PINK1 expr mod: -1.0%; D2 potentiator: -31; D2 agonist: -1.0; Six1-Eya2 blk: -11; TRPML1 ag: 0.7

How did CCOC(=O)NN1C(=O)c2ccccc2NC1c1cccs1 (configuration not stated) do in these assays?
CtBP-E1A inh: 3; PINK1 expr mod: 1.2%; D2 potentiator: -9; D2 agonist: -0.7; Six1-Eya2 blk: 9; TRPML1 ag: -1.2

How did O=C1CC(Nc2ccccc2)C(=O)N1Cc1ccccc1 (configuration not stated) do in these assays?
CtBP-E1A inh: 4; PINK1 expr mod: -0.8%; D2 potentiator: 4; D2 agonist: -4.4; Six1-Eya2 blk: 1; TRPML1 ag: -0.6

Results for Cc1cc(C(=O)Nc2ncn(Cc3ccc(F)cc3)n2)ccc1[N+](=O)[O-] ?
CtBP-E1A inh: -1; PINK1 expr mod: 0.4%; D2 potentiator: 7; D2 agonist: 4.3; Six1-Eya2 blk: 0

Results for c1ccc2c(c1)-c1nc3ccccc3cc1C2N1CCCCC1 (configuration not stated) ?
CtBP-E1A inh: -1; PINK1 expr mod: 7.4%; D2 potentiator: -5; D2 agonist: -3.4; Six1-Eya2 blk: -17; TRPML1 ag: -0.7

What do the screens show for `CN(Cc1ccccc1)C(=O)CN(c1ccccc1Cl)S(C)(=O)=O`?
PINK1 expr mod: -0.8%; D2 potentiator: -11; D2 agonist: 3.5; Six1-Eya2 blk: 9

Results for Cc1ccccc1P(=O)(c1ccccc1)c1ccccc1C ?
CtBP-E1A inh: -14; PINK1 expr mod: 1.9%; D2 potentiator: -15; D2 agonist: -11; Six1-Eya2 blk: -6; TRPML1 ag: -0.2

Reprinted at random: four entries already listed, in no set order.
What do the screens show for `COc1ccc(C(=O)N2CCCC(N3CCN(c4ccccc4F)CC3)C2)c(OC)n1` (configuration not stated)?
CtBP-E1A inh: -11; PINK1 expr mod: -1.0%; D2 potentiator: -31; D2 agonist: -1.0; Six1-Eya2 blk: -11; TRPML1 ag: 0.7

Results for O=C(CCS(=O)(=O)c1ccc(Br)cc1)NCc1ccco1 ?
PINK1 expr mod: 4.1%; D2 potentiator: -3; D2 agonist: 1.5; Six1-Eya2 blk: -23; TRPML1 ag: 3.5

What do the screens show for `COC(=O)c1cc(-c2ccc(Br)cc2)c2c(=O)[nH]c(=O)n(C)c2n1`?
CtBP-E1A inh: -15; PINK1 expr mod: 4.2%; D2 potentiator: -8; D2 agonist: -4.7; Six1-Eya2 blk: -18

Results for c1ccc2c(c1)-c1nc3ccccc3cc1C2N1CCCCC1 (configuration not stated) ?
CtBP-E1A inh: -1; PINK1 expr mod: 7.4%; D2 potentiator: -5; D2 agonist: -3.4; Six1-Eya2 blk: -17; TRPML1 ag: -0.7
